rRNA inh HTS = inhibits bacterial ribosomal RNA function over humanized ribosomes; 350,000 tested, 1.6% active; GFP signal change (wild-type ribosome), % (test concentration not listed); AID 720706; E. coli WT GFP vs humanized-ribosome RFP mutants, fluorescence, 24 h; hits give low values; DMSO median 0, no signal -100;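 active = significant combined selectivity score with lowered wild-type GFP, culture density cut under 30%, mutant RFP and density less affected; inactive = any of these conditions unmet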; also: one replicate is shown; some compounds called inactive have numbers as strong as hits
MLL AF4-AF9 inh = MLL-AF4/AF9 protein interaction inhibition; AlphaScreen, biotin-AF4 peptide binding to FLAG-AF9; inhibition, % at 10 µM; 350,000 tested, 0.47% active; AID 651704;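 active = every replicate reaching a set inhibition limit, whatever the replicate mean, cut at about 25% in these data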;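 also: 0% = plate neutral control median and 100% = total signal loss; the record names both 10 and 1 µM as test concentration; the first replicate is given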
Target sequence (P42568 whole entry, looked up): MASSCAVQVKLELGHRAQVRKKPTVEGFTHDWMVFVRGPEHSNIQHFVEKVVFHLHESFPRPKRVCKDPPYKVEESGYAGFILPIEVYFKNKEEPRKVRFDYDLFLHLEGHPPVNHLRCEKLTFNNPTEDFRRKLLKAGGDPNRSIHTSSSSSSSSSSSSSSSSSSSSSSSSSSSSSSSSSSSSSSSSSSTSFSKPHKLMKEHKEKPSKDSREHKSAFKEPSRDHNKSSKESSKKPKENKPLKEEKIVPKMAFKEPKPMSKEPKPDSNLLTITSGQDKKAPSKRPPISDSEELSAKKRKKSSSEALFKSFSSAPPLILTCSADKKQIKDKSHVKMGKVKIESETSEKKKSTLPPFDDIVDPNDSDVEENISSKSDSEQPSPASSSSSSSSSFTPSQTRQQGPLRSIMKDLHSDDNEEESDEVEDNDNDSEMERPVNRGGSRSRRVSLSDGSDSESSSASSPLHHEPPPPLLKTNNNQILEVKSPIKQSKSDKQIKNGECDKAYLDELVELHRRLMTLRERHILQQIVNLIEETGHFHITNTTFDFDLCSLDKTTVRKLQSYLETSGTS
rRNA inh HTS OD600 = recorded beside rRNA inh HTS, whose call it bears; OD600 change, %; measured here: OD600 growth;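 optical density of the mix in the first replicate; 0 = DMSO median and -100 = no signal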
rRNA inh HTS RFP = recorded beside rRNA inh HTS, whose call it bears; RFP signal change, %; measured here: RFP humanized mutant strains;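 first replicate; 0 = DMSO median and -100 = no signal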
* marks the source's active call; other numbers are inactive results. Not all compounds are listed; count on the stated rates, not on these rows.

Screening CCOC1=C2[C@H](c3ccccc3)N(S(=O)(=O)c3ccc(C)cc3)C(C(C)(C)C)[C@H]2C(C#N)(C#N)C(C#N)(C#N)C1 (some centres not stated) returned rRNA inh HTS 8, MLL AF4-AF9 inh -24, rRNA inh HTS OD600 5 and rRNA inh HTS RFP 6.3.
`C[C@@H]1CN([C@@H](C)CO)C(=O)c2c(c3ccccc3n2C)-c2ccccc2CO[C@@H]1CN(C)Cc1cccnc1` gave rRNA inh HTS -10, MLL AF4-AF9 inh -4.3, rRNA inh HTS OD600 -35 and rRNA inh HTS RFP 21.
`C[C@@H](NC(=O)C[C@@H]1CC[C@H](NC(=O)Cc2ccccn2)[C@H](CO)O1)c1ccccc1` gave rRNA inh HTS 1, MLL AF4-AF9 inh 0.7, rRNA inh HTS OD600 -1 and rRNA inh HTS RFP 0.3.
CCOC(=O)c1ccc(-c2ccc3ncnc(N(C)Cc4sccc4C)c3c2)o1 was read as rRNA inh HTS 7, MLL AF4-AF9 inh -4.9, rRNA inh HTS OD600 -10 and rRNA inh HTS RFP 20.
Screening C[C@H]1CCCCO[C@H](CN(C)C(=O)Nc2ccc(C(F)(F)F)cc2)[C@@H](C)CN([C@@H](C)CO)C(=O)c2cc(NC(=O)Nc3ccc4c(c3)OCO4)ccc2O1 returned rRNA inh HTS 3, MLL AF4-AF9 inh 1.6, rRNA inh HTS OD600 4 and rRNA inh HTS RFP 2.7.
Cc1noc(C)c1S(=O)(=O)Nc1cccc2c1O[C@H](CN(C)S(=O)(=O)c1ccc(F)cc1)[C@H](C)CN([C@H](C)CO)C2=O was read as rRNA inh HTS -2, MLL AF4-AF9 inh -0.2, rRNA inh HTS OD600 -9 and rRNA inh HTS RFP 1.3.
`CC(C)NC(=O)N(C)C[C@@H]1Oc2ccc(NC(=O)C3CCCCC3)cc2C(=O)N([C@@H](C)CO)C[C@@H]1C` gave rRNA inh HTS 2, MLL AF4-AF9 inh -2.4, rRNA inh HTS OD600 8 and rRNA inh HTS RFP -1.4.
O=C(C[C@@H]1CC[C@H]2[C@@H](COC[C@@H](O)CN2S(=O)(=O)c2ccccc2)O1)NCCN1CCCCC1 was read as rRNA inh HTS 2, MLL AF4-AF9 inh -1.3, rRNA inh HTS OD600 9 and rRNA inh HTS RFP -1.6.
For Cc1noc(C)c1NC(=O)N(C)C[C@@H]1OCCCC[C@@H](C)Oc2ccc(NC(=O)Nc3ccc4c(c3)OCO4)cc2C(=O)N([C@H](C)CO)C[C@@H]1C the results were rRNA inh HTS 1, MLL AF4-AF9 inh -2.3, rRNA inh HTS OD600 3 and rRNA inh HTS RFP -1.3.
Screening CO[C@H](CN(C)S(=O)(=O)c1ccc(F)cc1)[C@@H](C)CN(Cc1ccccc1Cl)[C@H](C)CO returned rRNA inh HTS -3, MLL AF4-AF9 inh 0.6, rRNA inh HTS OD600 -11 and rRNA inh HTS RFP 2.0.
`CC=Cc1ccc2n(c1=O)C[C@H]1[C@H](CO)[C@@H](C(=O)Nc3nccs3)N(C(=O)CC)[C@@H]21` (mixture of isomers) gave rRNA inh HTS 2, MLL AF4-AF9 inh -2.1, rRNA inh HTS OD600 3 and rRNA inh HTS RFP -1.6.
Screening Cc1ccc(S(=O)(=O)Nc2ccc3c(c2)C(=O)N([C@@H](C)CO)C[C@@H](C)[C@H](CN(C)Cc2ccc(C(F)(F)F)cc2)OCCCC[C@H](C)O3)cc1 returned rRNA inh HTS 2, MLL AF4-AF9 inh 0.1, rRNA inh HTS OD600 -2 and rRNA inh HTS RFP 2.4.
Screening Cc1ccccc1S(=O)(=O)N1[C@H](C#N)[C@H](c2ccc(C#CC3CCCCC3)cc2)[C@@H]1CO returned rRNA inh HTS 0, MLL AF4-AF9 inh 0.0, rRNA inh HTS OD600 4 and rRNA inh HTS RFP -0.4.
`CC(C)NC(=O)Nc1cccc2c1O[C@H](CN(C)C(=O)Nc1ccc(C(F)(F)F)cc1)[C@H](C)CN([C@@H](C)CO)C2=O` gave rRNA inh HTS -8, MLL AF4-AF9 inh 0.7, rRNA inh HTS OD600 -9 and rRNA inh HTS RFP 2.1.
For C[C@H]1CN([C@@H](C)CO)C(=O)CCCn2cc(nn2)CO[C@H]1CN(C)CC1CCCCC1 the results were rRNA inh HTS 0, MLL AF4-AF9 inh -2.9, rRNA inh HTS OD600 3 and rRNA inh HTS RFP -0.9.
For O=C1NC[C@@H](CCCCN2C[C@H](Cc3ccccc3)N(CCC3CCCCC3)C(=O)C2=O)N(CCc2ccc(O)cc2)C1=O the results were rRNA inh HTS -19, MLL AF4-AF9 inh -0.1, rRNA inh HTS OD600 -39 and rRNA inh HTS RFP 14.
For CCS(=O)(=O)Nc1ccc2c(c1)C(=O)N(C)[C@@H]1CC[C@@H](CC(=O)Nc3ccccc3)O[C@@H]1CO2 the results were rRNA inh HTS 2, MLL AF4-AF9 inh 1.4, rRNA inh HTS OD600 -6 and rRNA inh HTS RFP -1.2.
`C[C@@H]1CCCCO[C@H](CN(C)Cc2ccc(C(F)(F)F)cc2)[C@H](C)CN([C@@H](C)CO)C(=O)c2cc(NS(=O)(=O)c3ccccc3)ccc2O1` gave rRNA inh HTS 0, MLL AF4-AF9 inh 2.4, rRNA inh HTS OD600 -29 and rRNA inh HTS RFP 28.
For O=C(C1CCCC1)N1CC2(C1)[C@H](c1ccccc1)[C@@H](CO)N2C(=O)NC1CCCC1 the results were rRNA inh HTS -1, MLL AF4-AF9 inh 1.1, rRNA inh HTS OD600 -7 and rRNA inh HTS RFP 1.9.
CN(C)C(=O)C[C@@H]1CC[C@@H](NC(=O)NC2CCCCC2)[C@H](CO)O1 was read as rRNA inh HTS -1, MLL AF4-AF9 inh 1.3, rRNA inh HTS OD600 -1 and rRNA inh HTS RFP 0.7.
Screening COc1ccc(NC(=O)N(C)C[C@H]2Oc3c(NC(=O)Nc4c(C)noc4C)cccc3C(=O)N([C@@H](C)CO)C[C@H]2C)cc1 returned rRNA inh HTS 4, MLL AF4-AF9 inh -1.9, rRNA inh HTS OD600 5 and rRNA inh HTS RFP -2.0.
CCCC(=O)Nc1ccc2c(c1)OC[C@@H](C)N(CC1CCOCC1)C[C@H](C)[C@H](OC)CN(C)C2=O was read as rRNA inh HTS 1, MLL AF4-AF9 inh -0.5, rRNA inh HTS OD600 -2 and rRNA inh HTS RFP -1.6.
O=C(Cc1ccccc1)N1C[C@@H]2[C@H](c3ccccc31)[C@@H](CO)N2C(=O)c1cccc(F)c1 was read as rRNA inh HTS -4, MLL AF4-AF9 inh -3.1, rRNA inh HTS OD600 -1 and rRNA inh HTS RFP 0.4.
`COc1cccc(-c2ccc3c(c2)O[C@@H](CN(C)Cc2cccnc2)[C@H](C)CN([C@@H](C)CO)S3(=O)=O)c1` gave rRNA inh HTS -22, MLL AF4-AF9 inh 4.3, rRNA inh HTS OD600 -30 and rRNA inh HTS RFP -5.8.
`O=C(C[C@H]1C=C[C@H](NC(=O)c2ccccn2)[C@H](CO)O1)NCc1cc(F)cc(F)c1` gave rRNA inh HTS -2, MLL AF4-AF9 inh 0.2, rRNA inh HTS OD600 3 and rRNA inh HTS RFP -1.4.
C[C@H](NC(=O)[C@@H]1[C@@H](CO)[C@@H]2Cn3c(ccc(-c4cccnc4)c3=O)[C@@H]2N1C)c1ccccc1 was read as rRNA inh HTS -3, MLL AF4-AF9 inh 0.5, rRNA inh HTS OD600 0 and rRNA inh HTS RFP -0.6.
`COc1ccc(S(=O)(=O)N(C)C[C@@H]2Oc3c(NC(=O)Nc4ccc(C(F)(F)F)cc4)cccc3C(=O)N([C@H](C)CO)C[C@H]2C)cc1` gave rRNA inh HTS -1, MLL AF4-AF9 inh -1.3, rRNA inh HTS OD600 -4 and rRNA inh HTS RFP -1.5.
For CC(C)(C)[S@](=O)N1Cc2cc(C(=O)N[C@H]3CCN(Cc4ccccc4)C3)nc(-c3cccc(-c4ccncc4)c3)c2[C@@H]1CCO the results were rRNA inh HTS -2, MLL AF4-AF9 inh 4.8, rRNA inh HTS OD600 -6 and rRNA inh HTS RFP 1.3.
COCC(=O)N(C[C@@H]1N[C@@H](CO)[C@@H]1c1ccc(-c2ccccc2)cc1)C(C)C was read as rRNA inh HTS 0, MLL AF4-AF9 inh 0.2, rRNA inh HTS OD600 7 and rRNA inh HTS RFP -0.4.
CO[C@@H]1CN(C)C(=O)c2cc(NS(C)(=O)=O)ccc2OC[C@H](C)N(C(=O)C2CCOCC2)C[C@@H]1C was read as rRNA inh HTS 2, MLL AF4-AF9 inh -1.7, rRNA inh HTS OD600 8 and rRNA inh HTS RFP -0.1.
O=C(C[C@@H]1CC[C@@H](NC(=O)C2CC2)[C@@H](CO)O1)NCc1ccncc1 was read as rRNA inh HTS -1, MLL AF4-AF9 inh 0.4, rRNA inh HTS OD600 -1 and rRNA inh HTS RFP 1.0.
COCCNC(=O)C[C@@H]1CC[C@H]2[C@@H](COc3ccc(NC(=O)c4cc(C)on4)cc3C(=O)N2C)O1 was read as rRNA inh HTS 3, MLL AF4-AF9 inh -1.3, rRNA inh HTS OD600 6 and rRNA inh HTS RFP 0.4.
Screening CC(=O)N(C)C[C@H]1Oc2cc(-c3ccccc3C)ccc2S(=O)(=O)N([C@H](C)CO)C[C@@H]1C returned rRNA inh HTS -2, MLL AF4-AF9 inh 1.3, rRNA inh HTS OD600 -6 and rRNA inh HTS RFP -1.7.
For COCC(=O)N1[C@H](CO)[C@@H](c2ccccc2)[C@@H]1CN(C)C(=O)c1cccnc1 the results were rRNA inh HTS 2, MLL AF4-AF9 inh -2.3, rRNA inh HTS OD600 7 and rRNA inh HTS RFP -1.8.
`C[C@H](CO)N1C[C@H](C)[C@H](CN(C)S(C)(=O)=O)Oc2ccc(N(C)C)cc2C1=O` gave rRNA inh HTS 0, MLL AF4-AF9 inh -1.8, rRNA inh HTS OD600 -1 and rRNA inh HTS RFP 0.9.
Screening C[C@@H]1CN([C@@H](C)CO)S(=O)(=O)c2ccc(-c3ccc(C#N)cc3)cc2O[C@@H]1CN(C)CC1CC1 returned rRNA inh HTS -3, MLL AF4-AF9 inh 2.5, rRNA inh HTS OD600 -2 and rRNA inh HTS RFP -0.8.
For C[C@@H]1CN([C@@H](C)CO)C(=O)c2cc(/C=C/c3ccccc3)cnc2O[C@H]1CN(C)Cc1ccncc1 the results were rRNA inh HTS -4, MLL AF4-AF9 inh 12, rRNA inh HTS OD600 -11 and rRNA inh HTS RFP 4.9.
`Cc1ccc(CN2CC(N3CC=CC3)CS2(=O)=O)cc1` (configuration not stated) gave rRNA inh HTS 0, MLL AF4-AF9 inh 5.2, rRNA inh HTS OD600 5 and rRNA inh HTS RFP -1.3.
For CC(C)CC#Cc1cnc2c(c1)C(=O)N([C@@H](C)CO)C[C@H](C)[C@@H](CN(C)C(=O)c1ccc3c(c1)OCO3)O2 the results were rRNA inh HTS 1, MLL AF4-AF9 inh 6.4, rRNA inh HTS OD600 -5 and rRNA inh HTS RFP 3.5.
Screening C[C@@H]1CN([C@H](C)CO)S(=O)(=O)c2ccc(C#CC3(O)CCCC3)cc2O[C@@H]1CN(C)C(=O)Nc1cccc(F)c1 returned rRNA inh HTS 0, MLL AF4-AF9 inh 3.3, rRNA inh HTS OD600 -10 and rRNA inh HTS RFP -2.8.
Screening CCc1nc2c(OCc3cc(Cl)cc(Cl)c3)cccn2c1N(C=O)Cc1ccc(OC)cc1 returned rRNA inh HTS -4, MLL AF4-AF9 inh 1.5, rRNA inh HTS OD600 -19 and rRNA inh HTS RFP 10.

Among those listed so far, 5 have a CF3 group.
Screening C[C@H]1CCCCO[C@H](CN(C)C(=O)Nc2ccc(C(F)(F)F)cc2)[C@@H](C)CN([C@@H](C)CO)C(=O)c2cc(NC(=O)Nc3ccc4c(c3)OCO4)ccc2O1 returned rRNA inh HTS 3, MLL AF4-AF9 inh 1.6, rRNA inh HTS OD600 4 and rRNA inh HTS RFP 2.7.
Screening Cc1ccc(S(=O)(=O)Nc2ccc3c(c2)C(=O)N([C@@H](C)CO)C[C@@H](C)[C@H](CN(C)Cc2ccc(C(F)(F)F)cc2)OCCCC[C@H](C)O3)cc1 returned rRNA inh HTS 2, MLL AF4-AF9 inh 0.1, rRNA inh HTS OD600 -2 and rRNA inh HTS RFP 2.4.
`CC(C)NC(=O)Nc1cccc2c1O[C@H](CN(C)C(=O)Nc1ccc(C(F)(F)F)cc1)[C@H](C)CN([C@@H](C)CO)C2=O` gave rRNA inh HTS -8, MLL AF4-AF9 inh 0.7, rRNA inh HTS OD600 -9 and rRNA inh HTS RFP 2.1.
`C[C@@H]1CCCCO[C@H](CN(C)Cc2ccc(C(F)(F)F)cc2)[C@H](C)CN([C@@H](C)CO)C(=O)c2cc(NS(=O)(=O)c3ccccc3)ccc2O1` gave rRNA inh HTS 0, MLL AF4-AF9 inh 2.4, rRNA inh HTS OD600 -29 and rRNA inh HTS RFP 28.
`COc1ccc(S(=O)(=O)N(C)C[C@@H]2Oc3c(NC(=O)Nc4ccc(C(F)(F)F)cc4)cccc3C(=O)N([C@H](C)CO)C[C@H]2C)cc1` gave rRNA inh HTS -1, MLL AF4-AF9 inh -1.3, rRNA inh HTS OD600 -4 and rRNA inh HTS RFP -1.5.

Screening data as filed in PubChem BioAssay.
